Screening results as filed in PubChem BioAssay.
LANA-nucl inh – LANA-nucleosome interaction inhibition. AID 720717. FITC-LANA1-23 / chicken nucleosome fluorescence polarization; active compounds read low. actives 0.3% (n = 51,000). z-score (no concentration beside the values);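 active = both repeat wells score below -2 in polarization z-score versus plate sample wells, excluding overly bright wells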;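 note: 100 nL library stock added to about 30 µL; numbers are from one replicate; some results filed as inactive read as strong as hits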
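System – purified chicken nucleosomes with FITC-labelled LANA N-terminal peptide (1-23) · Amount – 240 nM purified chicken nucleosomes (480 nM peptide binding sites), final · Also added – 50 nM FITC-LANA1-23 probe · Medium – TEN-BT buffer, pH 7.5 · Incubation – compound with peptide–nucleosome mix 10–45 min at room temperature · Detection – fluorescence polarization, ex 480 nm, em 535 nm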
Ab BasE inh – BasE siderophore biosynthesis inhibition. purified BasE, fluorescence polarization binding displacement. inhibition, % (concentration not given with the values). actives 0.1% (n = 84,000). AID 485350;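 active = both replicates above 25% with normal brightness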;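 note: 0% = negative plate control signal and 100% = positive plate control signal; stock transfer was 100 nL into about 30 µL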
An asterisk follows results filed as active; . = not tested or not shown; & = joins results of further samples. These rows are one share of the data. The share of hits here may be higher or lower than overall.

Values run as follows: LANA-nucl inh	Ab BasE inh
CCc1ccc(N2C(=O)/C(=C/C=C/c3ccco3)N(CC(=O)OC)C2=S)cc1
  1.46	-2.9
O=C(NCCCn1ccc2ccccc21)c1cnccn1
  .	2.4
COc1cccc(CNC(=O)C2=C(C)C(=O)OC23CCCCC3)c1OC
  -0.216	0.4
CCN(C(=O)CSc1nnc(-c2ccccc2Br)o1)c1nc(C)cs1
  0.164	1.4
COc1cccc2c1CC/C(=C\c1ccc(N(C)C)cc1)C2=O
  -3.04	-14.5
Cc1cc(C(=O)NCc2ccc(C)o2)n[nH]1
  -1.75	0.3
CCOC(=O)c1c(C)oc2c1c(C(c1ccccc1)N1CCOCC1)c(O)c1ccccc12 (stereo not given)
  .	2.6
Cc1nn(-c2ccccc2)nc1C(=O)NC(=O)N1CCSCC1
  .	-0.3
CCC(C(=O)N1CCN(c2cccc(C(F)(F)F)c2)CC1)c1ccccc1 (stereo not given)
  0.226	1.3
O=C(Nc1nccs1)C(c1ccccc1)N1CCOCC1 (stereo not given)
  0.629	-1.6

More records follow:
Values run as follows: LANA-nucl inh	Ab BasE inh
Cc1ccc(C)c(-c2n[nH]c(=O)c3ccccc23)c1
  .	0.8
CC(C)C1CC(C)(C)c2ccc(O)cc21 (stereo not given)
  .	-0.6
COc1ccc(/C=N/N2CCN(C)CC2)cc1
  0.0295	-1.0
FC(F)(F)c1cnc(NCc2nnc3ccccn23)c(Cl)c1
  .	1.8
O=c1[nH]cc(-n2c(=O)c3cc4c(=O)n(-c5c[nH]c(=O)[nH]c5=O)c(=O)c4cc3c2=O)c(=O)[nH]1
  -0.235	2.9
CCOc1cc2c3c(c1)C1(OCCO1)C(=O)N3C(C)(C)CC2C (stereo not given)
  0.805	2.6
COc1cc(OC)c(NC(=O)CCc2c(C)nc3c(c2C)c(=O)n(C)c(=O)n3C)cc1Cl
  -1.61	1.8
CCOC(=O)C1CCN(CCCCOc2ccc(C#N)cc2)CC1
  0.753	-0.1
COc1ccc(C(=O)Oc2cccnc2)cc1OC
  1.23	8.0
CS(=O)(=O)c1ccc(C(=O)Nc2ccc3sccc3c2)cc1
  -0.089	1.5

(next part)
Values run as follows: LANA-nucl inh	Ab BasE inh
COc1ccc(C2(C(=O)NCCN3CCOCC3)CCCC2)cc1
  -1.02	4.1
CC(C)C(=O)Nc1ccc(Cl)cc1
  0.42	.
CNc1ccc2cccc(O)c2n1
  0.143	0.7
O=C(NNC1=NCCC1)C1CC1
  .	1.1
CCCC1=NN(C(=O)/C=C/c2cccs2)C(=O)C1Cc1c(F)cccc1Cl (stereo not given)
  .	-0.4
COc1ccc(CC(=O)NC2CCN(Cc3nnnn3C(C)(C)C)CC2)cc1OC
  -1.24	2.2
COc1ccc(CNC(=O)COc2cc(=O)n(C)c3ccccc23)cc1
  -0.671	-0.2
CCc1cccc(OCCCN2CCN(C)CC2)c1
  1.95	-4.1
CC1CCc2c(sc3nc(CN(C)C)[nH]c(=O)c23)C1 (stereo not given)
  .	-0.3
Oc1ccccc1/C=N/c1ccnn1-c1ccccc1
  -0.425	2.2

Continuation.
Values run as follows: LANA-nucl inh	Ab BasE inh
COc1ccc(/C=C2/N=C(SC)NC2=O)cc1OC
  -0.381	2.1
CCN1CCCC1CNC(=O)c1nnc(Cc2ccc(F)cc2)o1 (stereo not given)
  2.36	0.8
CSC1=N/C(=C\c2ccccc2O)C(=O)N1Cc1ccco1
  -0.483	1.8
N#C/C(=C\Nc1ccc(F)c(Cl)c1)S(=O)(=O)Cc1ccco1
  .	-9.3
CCc1n[nH]c(=S)n1/N=C/c1c(C)nn(-c2cccc(Cl)c2)c1Cl
  .	-0.9
CC1=NOC2(O)CC3C(C12)C3(C)C (stereo not given)
  -0.762	2.6
CC1(C)C/C(=N\O)C(C(O)c2ccccc2)C(C)(C)N1 (stereo not given)
  -0.187	-2.0
CC(Nc1ncnc2sc3c(c12)CCC3)C(=O)O (stereo not given)
  -0.519	0.4
O=C(Nc1cc(C(F)(F)F)cc(C(F)(F)F)c1)C12CC3CC(CC(C3)C1)C2
  .	4.8
CC(C)(C)C(=O)/C(C#N)=C/c1ccc(-c2ccc(F)cc2)o1
  .	7.3

Next section.
Values run as follows: LANA-nucl inh	Ab BasE inh
CCOC(=O)Nc1ccc2c(c1)N(C(=O)N(C)C)c1ccccc1CC2
  -0.0365	-0.7
COc1nc(OCCNS(=O)(=O)c2ccc(C)cc2)nc(N(C)C)n1
  -0.189	-0.3
O=C(O)c1csc2c1CCCC2
  0.422	0.4
CC1(C)C(c2ccccc2)=NC(c2ccccc2)N1O (stereo not given)
  0.0445	0.7
COc1cccc(-n2c(CNC(=O)OC(C)(C)C)n[nH]c2=S)c1
  -0.728	-0.8
O=C(CC1SC(=NC2CC2)NC1=O)Nc1ccc(Oc2ccccc2)cc1 (stereo not given)
  .	0.4
O=C(c1ccc(F)cc1)n1c(NCc2ccccc2)n[nH]c1=S
  0.894	4.9
Cc1ccccc1-c1nnc(NC(=O)CC(C)C)s1
  0.036	1.0
Cc1noc(C(=O)N2C(C)CCCC2C)c1Cl (stereo not given)
  -0.619	5.2
CC(=O)N(C)c1cccc2ccccc12
  0.042	1.4

Next section:
Values run as follows: LANA-nucl inh	Ab BasE inh
Cn1c(-c2ccccc2)c(C(=O)COC(=O)c2ccc(S(=O)(=O)NCc3ccco3)cc2)c2ccccc21
  .	2.0
CCCN1CN=C(Nc2nc(-c3ccccc3)c3cc(Cl)ccc3n2)NC1
  -0.693	0.2
Cc1sc2nc(CC(=O)N3CCCC3)[nH]c(=O)c2c1C
  .	1.1
CC1C2C(C)N(C)C(=O)N(C)C2N(C)C(=O)N1C (stereo not given)
  0.208	1.9
O=C1C(c2c(O)[nH]c3ccccc23)=Nc2ccccc21
  -0.353&-0.59	1.0
CC(C)(C)c1nnc(NS(=O)(=O)c2ccc(F)cc2)s1
  -0.638	0.0
CS(=O)(=O)N(CC(=O)NCc1ccco1)Cc1ccc(Cl)c(Cl)c1
  0.096	-2.4
Cn1nc(C(=O)Nc2ccccc2)c2c1-c1ccsc1CC2
  -0.0045	-0.2
CCN1CC=C2C(C1)C(c1ccc(Cl)s1)C(C#N)=C(N)C2(C#N)C#N (stereo not given)
  -5.85*	19.8
CCCNC(=O)Cn1nc(CC)n2c(cc3ccccc32)c1=O
  3.13	1.1

(cont.)
Values run as follows: LANA-nucl inh	Ab BasE inh
Cc1ccc2c(C#N)cc(C)cc2c1
  -0.056	1.6
Cc1nn(-c2ccc(F)cc2)c2sc(C(=O)NO)cc12
  .	0.2
CCOc1cc(/C(O)=C(\C#N)c2nc3ccccc3[nH]2)cc(OCC)c1OCC
  -0.74	1.0
COc1ccccc1N(C(=O)NCc1ccccc1)C1=NCC(C)S1 (stereo not given)
  .	2.4
CO[C@H]1C[C@H](O[C@H]2[C@H](C)[C@@H](O[C@@H]3O[C@H](C)C[C@H](N(C)C)[C@H]3OC(C)=O)[C@@H](C)C[C@@]3(CO3)C(=O)[C@H](C)[C@@H](OC(C)=O)[C@@H](C)[C@@H](C)OC(=O)[C@@H]2C)O[C@@H](C)[C@@H]1OC(C)=O
  0.496	.
Cn1c(=O)c2c(nc3n2CC=NN3)n(C)c1=O
  1.36	-0.8
O=C(c1ccc2nonc2c1)N1CCN(C(c2ccccc2)c2ccccc2)CC1
  .	-1.8
COC(=O)C1=C(C)NC(C)=C([N+](=O)[O-])C1c1ccccc1C(F)(F)F (stereo not given)
  -0.486	-0.1
O=C1CC(N2CCCCC2CCO)C(=O)N1c1ccccc1 (stereo not given)
  2.46	1.9
COc1nc(OC)nc(N2CCC(C(=O)NCC3CCCCC3)CC2)n1
  0.395	0.5

(continued)
Values run as follows: LANA-nucl inh	Ab BasE inh
NC(=O)C1CCCN(C(=O)C(c2ccccc2)c2ccccc2)C1 (stereo not given)
  .	2.0
CCN1C(=O)S/C(=C/c2cccs2)C1=O
  -0.0885	2.4
O=C(O)c1cn(C2CC2)c2cc(N3CCNCC3)c(F)cc2c1=O
  1.09&0.121&0.21&0.417	-3.5&0.4
COc1ccc(-c2nc3ccc4ccccc4c3c3c2CCCC3)cc1
  .	1.1
COc1ccc(NC(=O)Nc2ccc3c(c2)C(=O)OC3)cc1
  .	0.6
N#C/C(=C(/O)CSc1nncn1-c1ccccc1)c1nc2ccccc2[nH]1
  .	-0.7
CS(=O)(=O)N1CCN(Cc2ccccc2)CC1
  0.058	-0.2
CCC(=O)c1c[nH]c(C(=O)NCCCn2ccnc2)c1
  0.134	.
Cc1[nH]c2ccc(C(=O)OCC(=O)N3CCN(c4ccccc4)CC3)cc2c1C
  .	2.3
CC(C)OC(=O)CSc1ncnc2c1cnn2-c1ccccc1
  0.883	-3.4

New compounds follow
Values run as follows: LANA-nucl inh	Ab BasE inh
N#Cc1ccc(NC(=O)C2CCCO2)cc1 (stereo not given)
  0.117	-1.4
O=C(NCCN1CCN(c2ncnc3sc4c(c23)CCCC4)CC1)c1ccco1
  .	0.6
CC(C)(C)c1ccc(C(=O)Nc2ccon2)cc1
  0.812	-2.6
N#Cc1c(N)n[nH]c1-c1cc2c([nH]1)CCCC2
  0.101	0.6
Cc1nc(C)c(NC(=O)OC(C)C)cc1NC(=O)OC(C)C
  .	1.7
Cn1c(SCCS(=O)(=O)c2ccc(Cl)cc2Cl)nnc1-c1ccco1
  -0.511	3.3
COc1cc2c(cc1OC)C(C)N(S(=O)(=O)c1cn(C)cn1)CC2 (stereo not given)
  -0.534	0.5
Cn1c2ccccc2c2nnc(SCCN3CCCCC3)nc21
  0.84	-0.9
c1ccc2oc(CSc3ccc4c(c3)OCCO4)nc2c1
  .	-0.2
CCN(C(=O)CSc1nc2sc3c(c2c(=O)n1C)CCCC3)C1CCS(=O)(=O)C1 (stereo not given)
  .	2.2

Next records follow:
Values run as follows: LANA-nucl inh	Ab BasE inh
CC1=C(C)C(=O)C(CCCCC#CCCCC#CCO)=C(C)C1=O
  -0.142&-0.341	-1.1
S=c1nc[nH]c2c1oc1ccccc12
  0.548	-0.9
Cc1ccc(-c2nnc(CCC(=O)NN)o2)cc1
  .	0.3
C=CCn1c(SCC2=C(C(=O)OCC)C(C)NC(=O)N2)nnc1C1CCCCC1 (stereo not given)
  .	-0.1
FC(F)(F)c1ccc(-c2n[nH]c(=S)o2)nc1
  -1.4	1.5
C/C(N)=C(/C#N)C(=O)CSc1nnc2sc3ccccc3n12
  .	0.8
Cc1cc(C)n(CCC(=O)NC2CCCCCC2)n1
  -0.829	2.4
Cc1ccccc1NC(=O)c1cc(C)n(Cc2cccs2)c1C
  1.47	-1.8
O=P(c1ccc2c(c1)OCCO2)(N1CCOCC1)N1CCOCC1
  .	0.6
O=C1c2ccccc2C(=O)N1Cc1ncc(-c2ccccc2)o1
  .	-0.1

Next section:
Values run as follows: LANA-nucl inh	Ab BasE inh
CCN1C=C(C(=O)OC)C(c2cc3c(cc2Br)OCO3)C(C(=O)OC)=C1
  .	-3.8
Cc1noc(C)c1COC(=O)CC1Sc2ccccc2NC1=O (stereo not given)
  .	2.1
CCn1c(SCCN2CCOCC2)nnc1C1CCCCC1
  0.848	-1.3
Cc1ccc(OCc2nc(SCC(=O)NCC(F)(F)F)n[nH]2)cc1
  .	-0.5
Cc1csc(=O)n1CC(=O)OCC(=O)c1ccc(C(C)(C)C)cc1
  .	-3.0
Cc1ccc(NCn2nnc3ccccc32)c(Br)c1
  -0.058	-0.2
O=C1CCc2cc(S(=O)(=O)NC(Cc3ccccc3)C(=O)N3CCn4c3nc3ccccc34)ccc2N1 (stereo not given)
  1.06	-0.6
CCCC(=O)c1cc(F)c(N2CCOCC2)cc1C
  -0.029	2.9
O=C(NC1CCN(C(=O)C2CCCCC2)CC1)c1ccccc1
  -0.56	2.5
CCNc1ccc2c(cc1=O)[C@@H](NC)CCc1cc(OC)c(OC)c(OC)c1-2
  2.57	-3.6

Remaining list, next part:
Values run as follows: LANA-nucl inh	Ab BasE inh
Cc1cc(C(=O)OCC(=O)N2CC3(C)CC2CC(C)(C)C3)c(C)o1 (stereo not given)
  .	-2.3
C=CCc1c(C)[nH]c2ccccc2c1=O
  1.39	-1.9
COc1ccc(NC(=O)c2cccc(S(=O)(=O)N3CCCC3)c2)c(OC)c1
  .	4.5
COC(=O)c1cc(OC)c(OC)cc1NC(=S)N1CCN(C(=O)c2ccco2)CC1
  0.657	-0.9
CSc1nc(NC(N)=S)nc(NC(C)C)n1
  -0.231	-0.7
CS(=O)(=O)N1CCC(c2nc(-c3ccc(S(=O)(=O)NCC4CCCO4)cc3)no2)CC1 (stereo not given)
  -0.774	0.0
Cc1cccc2cc(CN(C(=O)c3ccco3)C3CCCC3)c(=O)[nH]c12
  -0.403	4.2
CC1(C)c2ccccc2N(CCC(N)=O)C12C=Cc1c(ccc3ccccc13)O2 (stereo not given)
  .	0.6
Cc1nn(-c2ccccc2)c(Cl)c1C(=O)OCC(=O)N1CCCC1
  .	-0.2
O=C(Nc1cccc2cccnc12)c1ccc(Br)o1
  -0.174	-4.0
CC(C)(C)NSc1nc2ccccc2s1
  0.145	3.3
CC(C)NC(=O)CSc1nc(-c2ccccc2)cn1N
  .	4.4
OC(CNCC1COc2ccccc2O1)c1ccccc1 (stereo not given)
  -0.325	.

One compound at a time (already shown). Order of screens: LANA-nucl inh, Ab BasE inh
O=C1CC(N2CCCCC2CCO)C(=O)N1c1ccccc1 (stereo not given) is listed as 2.46, 1.9
N#C/C(=C\Nc1ccc(F)c(Cl)c1)S(=O)(=O)Cc1ccco1 is listed as ., -9.3
Cc1cc(C(=O)NCc2ccc(C)o2)n[nH]1 is listed as -1.75, 0.3
CC(Nc1ncnc2sc3c(c12)CCC3)C(=O)O (stereo not given) is listed as -0.519, 0.4
CCN1CCCC1CNC(=O)c1nnc(Cc2ccc(F)cc2)o1 (stereo not given) is listed as 2.36, 0.8
